Screens (PubChem)
AID923: qHTS Assay for Allosteric/Competitive Inhibitors of Caspase-1: Spectroscopic Profiling in AFC Spectral Region; compound fluorescence, AFC spectral region (405/520 nm); almost no hit is shown here; Potency, µM (series often up to 57.5 µM), without a hit: top-dose fluorescence increase, actives largely listed as activators; AID 923, 2007; 75,000 compounds, 1.1% hits; active = well fitted activation curve with a large enough effect; inconclusive = small, poorly fitted or top-dose-only effect;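 also: potency is read from the fitted curve at half-maximal effect; 0% is about no effect; scaled to a free AFC standard on each plate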
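Baseline compound fluorescence (AFC region, 405 nm ex/520 nm em) taken from the intercept of kinetic reads with 50 nM caspase-1 and 5 uM Ac-WEHD-AFC; normalized to an on-plate AFC standard curve; compounds titrated up to 57 uM.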
A488 autofl: qHTS Assay for Spectroscopic Profiling in A488 Spectral Region; compound autofluorescence, A488 spectral region, dye equivalency; hits give high values; max dye equivalency, M; 59,000 compounds, 0.1% hits; active = above 10 nM dye equivalent; inconclusive = 1 to 10 nM; inactive = 1 nM or less; about half of its hits are not listed in these tables;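 also: highest value over a series up to 38 µM; compound alone in buffer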
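Read-out: relative fluorescence at 480/540 nm, expressed as Alexa 488 dye-equivalent concentration from a six-point A488 standard included per plate. Conditions: 100 mM Tris, pH 8.0; 15 min incubation, room temperature.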
Resorufin autofl: qHTS Assay for Spectroscopic Profiling in Resorufin Spectral Region; max dye-equivalent concentration, M; AID 588, 2007; 59,000 compounds, 0.04% hits; Compound fluorescence, resorufin region 547/598 nm, buffer; hits give high values; active = above 10 nM dye equivalent; inconclusive = 1 to 10 nM; inactive = 1 nM or less; a few of its hits are not listed in these tables; also: highest value over a series up to 38 µM
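Read-out: intrinsic compound fluorescence at ex 547/em 598 nm after 15 min at RT in pH 8.0 Tris (100 mM). Values expressed as resorufin-equivalent concentration from per-plate standard series.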
A647 autofl: qHTS Assay for Spectroscopic Profiling in A647 Spectral Region. Compound fluorescence, A647 channel (570/671 nm), Tris buffer. max dye-equivalent concentration, M. 59,000 tested, under 10 active. AID 592, 2007; active means above 1 µM dye equivalent; inconclusive means 0.1 to 1 µM; inactive means 0.1 µM or less;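 also: values scaled relative to a standard on each plate; highest value over a series up to 38 µM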
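Fluorescence read (570 nm ex, 671 nm em) after 15 min RT incubation of compounds in 100 mM Tris buffer, pH 8.0; values expressed as dye-equivalent concentration against a six-point A647 standard series on each plate.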
TSHR ag: qHTS Assay for Agonists of the Thyroid Stimulating Hormone Receptor | Thyrotropin receptor (Homo sapiens), P16473 | HEK293-CNG-TSHR cells (CNG channel as cAMP sensor), membrane potential dye, cAMP | 73,000 compounds, 0.48% hits | Potency, µM (top dose mostly 57.1 µM), for the others: at the highest dose activation, most hits filed as activators; active = well fitted activation curve of enough size with the parental cells flat; inconclusive = any curve in the parental cells; inactive = parental cells flat and receptor cells flat or falling; also: potency is read from the fitted curve at half-maximal effect; % of control where 0% means no effect; weak receptor curves with flat parental cells got no call and are not listed
Target sequence (P16473 whole entry, looked up): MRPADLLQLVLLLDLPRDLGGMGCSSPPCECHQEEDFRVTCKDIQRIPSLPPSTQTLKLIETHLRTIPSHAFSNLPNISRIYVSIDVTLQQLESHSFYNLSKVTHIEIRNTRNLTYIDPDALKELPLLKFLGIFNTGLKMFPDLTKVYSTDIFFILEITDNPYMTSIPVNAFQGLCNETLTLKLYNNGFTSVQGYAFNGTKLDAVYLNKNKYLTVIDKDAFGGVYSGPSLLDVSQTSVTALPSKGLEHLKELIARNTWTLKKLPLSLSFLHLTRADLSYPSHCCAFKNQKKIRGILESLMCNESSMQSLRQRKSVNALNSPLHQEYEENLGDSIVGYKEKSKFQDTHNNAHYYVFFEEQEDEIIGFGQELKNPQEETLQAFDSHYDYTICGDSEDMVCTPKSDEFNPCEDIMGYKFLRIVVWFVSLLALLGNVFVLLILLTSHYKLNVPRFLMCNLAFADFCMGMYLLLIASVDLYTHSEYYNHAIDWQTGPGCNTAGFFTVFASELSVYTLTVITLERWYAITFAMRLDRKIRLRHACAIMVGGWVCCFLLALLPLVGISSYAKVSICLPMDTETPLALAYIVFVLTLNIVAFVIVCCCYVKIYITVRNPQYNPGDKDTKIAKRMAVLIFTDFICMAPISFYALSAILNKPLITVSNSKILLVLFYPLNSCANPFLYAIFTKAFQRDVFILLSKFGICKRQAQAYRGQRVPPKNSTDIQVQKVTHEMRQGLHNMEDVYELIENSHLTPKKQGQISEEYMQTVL
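HEK 293 cells stably expressing TSHR and a modified CNG channel, with CNG-only parental cells as counterscreen, were preloaded 60 min at room temperature with membrane potential dye containing 100 uM RO 20-1724. Compound exposure was 30 min, and depolarization was read as fluorescence at 590 nm.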
Starred values were filed as active, the others as inactive; i = inactive; u = inconclusive; x = no result given; [ ] = remark or other dose. The list is partial. The share of hits here may be higher or lower than overall.

Molecule	AID923	A647 autofl	Resorufin autofl	TSHR ag	A488 autofl
C[C@]1(c2ccccc2)OC(C(=O)O)=CC1=O	0.8%	x	x	6.4%	x
CCN(CC)CCCNC(=O)C1c2ccccc2C(=O)N(C)C1c1ccc(OC)cc1 (stereo not drawn)	1.6%	2.7e-09	i	1.1%	i
S=C1NCN2CCN(CC2)CNC(=S)C(=S)NCN2CCN(CC2)CNC1=S	-0.9%[11.5 µM]	4.1e-09	i	0.9%[11.4 µM]	i
Cc1cccc(CSc2ncnc3nc[nH]c23)c1	-0.5%	x	x	-5.1%	x
CC1(C(=O)O)CCC(C(=O)NC2CCCCCC2)C1(C)C (stereo not drawn)	x	3.75e-08	i	x	i
CCCOc1ccc(N2C(=O)CC(NCCCN3CCC(C(N)=O)CC3)C2=O)cc1 (stereo not drawn)	1.7%	1e-09	i	2.7%	i
O=C(Nc1cccc(F)c1)N1CC[C@@]2(CCCN(C(=O)c3cc(C(F)(F)F)cc(C(F)(F)F)c3)C2)C1	5.4%	1.45e-08	i	21.4%	i
C=CCn1c(SCC(=O)Nc2ccccc2)nnc1-c1cccc(S(=O)(=O)N2CCOCC2)c1	-0.3%	2.38e-08	i	2.3%	i

The results go on:
Molecule	AID923	A647 autofl	Resorufin autofl	TSHR ag	A488 autofl
O=C(Nc1cnn(Cc2ccc(F)cc2)c1)c1cc(-c2cccs2)on1	-0.4%	4e-09	i	-3.3%	i
COc1ccc(Br)cc1S(=O)(=O)n1ccnc1C	-1.3%	4.2e-09	i	2.5%	i
Cc1n[nH]c(C)c1S(=O)(=O)N1CCCC(C(=O)NC2CCCc3ccccc32)C1 (stereo not drawn)	-2.3%	x	x	19.3%	x
CC1(C)Cc2c(sc3c2c(=N)n(Cc2ccco2)c(=O)n3CC(=O)Nc2cccc(Cl)c2)CO1	-1.3%	1e-09	i	12.1%	i
O=C(NC1CCC(C(=O)O)CC1)OCc1ccccc1 (stereo not drawn)	-1.3%	2.54e-08	i	-3.3%	i
O=C(c1ccc(S(=O)(=O)N2CCOCC2)cc1)N(c1ccccc1)C1C=CS(=O)(=O)C1 (stereo not drawn)	-0.2%	1e-09	i	-5.7%	i
CCSc1nc2c(c(=O)[nH]c(=O)n2C)n1Cc1ccc(Cl)cc1	-0.4%	7.2e-09	i	4.7%[11.4 µM]	i
CCOCc1nnc(NC(=O)c2cccs2)s1	-0.8%	2.55e-08	i	-2.7%	i

Carrying on.
Molecule	AID923	A647 autofl	Resorufin autofl	TSHR ag	A488 autofl
CCn1c2ccccc2c2cc(NC(=O)COC(=O)C3CCC(=O)N3)ccc21 (stereo not drawn)	-3.0%	3.67e-08	i	0.7%	i
O=c1cc(N2CCN(c3cccc(Cl)c3)CC2)[nH]c(=O)n1C1CCCCC1	-2.3%	8.4e-09	i	-1.2%	i
Cc1cc2nc(-c3ccco3)cc(C(F)(F)F)n2n1	0.5%	x	x	11.0%	x
CCOC(=O)C1CCCN(C(=O)CNS(=O)(=O)c2ccc(Br)s2)C1 (stereo not drawn)	-0.3%	1.02e-08	i	-3.2%	i
Cn1c(N)c(C(=O)COC(=O)c2ccco2)c(=O)n(C)c1=O	-1.6%	2.74e-08	i	-0.9%	i
Cc1cc2c(c(=O)n1CCN(C)C)C(c1ccccc1Br)C(C#N)=C(N)O2 (stereo not drawn)	-0.2%	1e-09	i	-0.7%	i
O=c1cnc2cnc(Oc3ccccc3)nc2n1Cc1ccc(F)cc1	2.1%	1e-09	i	u	i
COc1ccccc1S(=O)(=O)Cc1ccc(C(=O)N2CCN(c3ccc(C)cc3)C(C)C2)o1 (stereo not drawn)	0.7%	x	x	11.9%	x

Additional results follow.
Molecule	AID923	A647 autofl	Resorufin autofl	TSHR ag	A488 autofl
Cc1ccc(S(=O)(=O)N2CCCN(S(=O)(=O)c3ccc4c(c3)OCCO4)CC2)cc1	0.7%	2.6e-08	i	x	i
O=C1C=C[C@@H](O)[C@H]2[C@@H]3C(=O)N(C[C@@H]4CCCO4)C(=O)[C@@H]3CC[C@H]12	-0.9%[11.5 µM]	x	x	15.1%[11.4 µM]	x
Cc1nnc(Nc2ccc(C(=O)N3CCOCC3)cc2)c2ccccc12	-0.5%	4.49e-08	i	24.1%	i
COC(=O)COc1ccc(S(=O)(=O)Nc2ccc(C(N)=O)cc2)cc1Cl	-2.0%	1.1e-09	i	2.7%	i
COC(=O)c1[nH]c2ccccc2c1NC(=O)CCN1CCSCC1	-1.2%	1.7e-08	i	5.4%	i
COc1ccc(Nc2ncnc3c2cnn3Cc2ccccc2)cc1OC	0.6%	9.5e-09	i	-4.2%	i
COCCn1c(=S)[nH]c2cc(C(=O)N3CCN(c4ccccc4OC)CC3)ccc2c1=O	2.4%	1e-09	i	-20.8%	i
O=C(CN1CCN(C(=O)c2ccco2)CC1)Nc1ccccc1-c1ccccc1	5.9%	x	x	u	x

3 of the compounds above, with each value named.
S=C1NCN2CCN(CC2)CNC(=S)C(=S)NCN2CCN(CC2)CNC1=S
- AID923: -0.9%[11.5 µM]
- A647 autofl: 4.1e-09
- Resorufin autofl: i
- TSHR ag: 0.9%[11.4 µM]
- A488 autofl: i

Cc1cc2nc(-c3ccco3)cc(C(F)(F)F)n2n1
- AID923: 0.5%
- A647 autofl: x
- Resorufin autofl: x
- TSHR ag: 11.0%
- A488 autofl: x

CCCOc1ccc(N2C(=O)CC(NCCCN3CCC(C(N)=O)CC3)C2=O)cc1 (stereo not drawn)
- AID923: 1.7%
- A647 autofl: 1e-09
- Resorufin autofl: i
- TSHR ag: 2.7%
- A488 autofl: i

Continued.
Molecule	AID923	A647 autofl	Resorufin autofl	TSHR ag	A488 autofl
COc1ccc2c(c1)c(=O)oc1cc(OCC(=O)N3CCC(C)CC3)ccc12	-0.6%	3.45e-08	i	u	i
COCCn1c(SCC(=O)c2ccccc2)nc2c(c1=O)SC(C)C2 (stereo not drawn)	1.0%	2.66e-08	i	19.7%	i
O=C(NC1CC1)C1CCCN1S(=O)(=O)c1ccc2ccccc2c1 (stereo not drawn)	-1.5%	2.75e-08	i	6.2%	i
Cc1cc(C)c(C#N)c(SC2CCCCC2=O)n1 (stereo not drawn)	-1.1%	2.5e-09	i	6.4%	i
COc1ccccc1Nc1nc2ccccc2[nH]1	-0.8%	1.73e-08	i	8.1%	i
O=C(/C=C\c1ccc(O)cc1)c1ccc(O)cc1O	-1.2%	1.96e-08	i	-23.7%	u
CC1(C)Cc2nc(N3CCOCC3)c(C#N)cc2CO1	-0.6%	3.3e-09	i	u	i
CCOC(=O)N1CCN(c2c(NCCc3ccc(OCC)c(OCC)c3)c(=O)c2=O)CC1	1.6%	3.6e-09	i	6.5%[11.4 µM]	i

Next part
Molecule	AID923	A647 autofl	Resorufin autofl	TSHR ag	A488 autofl
CCOC(=O)CN1C(=O)C(O)(CC(=O)c2ccco2)c2ccccc21 (stereo not drawn)	0.9%	x	x	6.1%	x
Cc1ccc(S(=O)(=O)NCC(=O)N(CC(=O)NCC2CCCO2)C2CCCC2)cc1 (stereo not drawn)	0.0%	3.12e-08	i	-4.0%	i
O=C(CN1C(=O)CCS(=O)(=O)c2ccccc21)NCc1ccccc1	-0.8%	1e-09	i	1.2%	i
CCOc1ccc(C(=O)Nc2nnc(C)s2)cc1OCC	-0.1%	x	x	0.9%[11.4 µM]	x
C/C(Cl)=C/Cn1c(SC(C)C)nc2c1c(=O)[nH]c(=O)n2C	-0.2%	1e-09	i	u	i
Cc1c(-c2ccccc2)oc2c(C(=O)OCCN3CCCCC3)cccc2c1=O	3.8%[25.7 µM]	7.8e-09	i	14.1%[25.6 µM]	i
CNc1nc(SCc2ccccc2)nc(N2CCOCC2)n1	-1.3%	2.83e-08	i	23.9%	i
O=P(c1cccs1)(c1cccs1)c1cccs1	-1.4%	x	x	0.631µM*	x

(listing goes on)
Molecule	AID923	A647 autofl	Resorufin autofl	TSHR ag	A488 autofl
CC1(C)CC(=O)C=C(N2CCN(C3=CC(=O)CC(C)(C)C3)CC2)C1	0.3%	1e-09	i	1.9%	i
CCOC(=O)c1c(C)[nH]c(C)c1C(=O)CN1C(=O)NC(CC(C)C)C1=O (stereo not drawn)	0.2%	1e-09	i	0.0%[11.4 µM]	i
CNC(=O)c1ccccc1	-1.1%	x	x	-8.9%	x
COC(=O)[C@@]1(Cc2ccc(F)cc2)[C@@H]2C(=CC(=O)[C@H]2CC(=O)C(=O)N2CCCC2)CN1C(=O)c1ccccc1	-0.8%	x	x	1.0%	x
Cc1ccc(C)c(OCC(O)CN2C(C)CCCC2C)c1 (stereo not drawn)	-1.6%	1e-09	i	u	i
N#Cc1ccccc1-c1ccc2ncnc(NCc3ccccc3)c2c1	3.0%	1e-09	i	u	i
CCOC(=O)N1CCN(C(=O)c2ccc3c(=O)n(Cc4ccc(Cl)cc4)c(=S)[nH]c3c2)CC1	2.4%	5.4e-09	i	9.3%	i
CCC(=O)N1CCc2cc(S(=O)(=O)CCC(=O)NCc3cccs3)ccc21	1.2%	2.1e-09	i	u	i

The results go on:
Molecule	AID923	A647 autofl	Resorufin autofl	TSHR ag	A488 autofl
COc1cccc(C2/C(=C(\O)c3ccc4c(c3)OCCO4)C(=O)C(=O)N2CCCN(C)C)c1OC (stereo not drawn)	x	1e-09	i	x	i
O=C1C2C3C=CC(C3)C2C(=O)N1CC1CCCO1 (stereo not drawn)	2.0%	2.8e-09	i	9.6%	i
COc1ccc(COC(=O)N/N=C2/C[C@@H](O)[C@@H](O)[C@@H]3[C@@H]4C(=O)N(C5CCCCC5)C(=O)[C@H]4CC[C@@H]23)cc1	-0.4%[11.5 µM]	x	x	-5.3%[11.4 µM]	x
COc1cccc2cc(C(=O)N3CCN(C/C=C/c4ccccc4)CC3)c(=O)oc12	3.2%	1.38e-08	i	5.9%	i
COc1ccc(N2CCN(/C(=N\S(=O)(=O)c3ccccc3)Nc3nc(C)cc(C)n3)CC2)cc1	1.7%	1e-09	i	-7.5%	i
O=S(=O)(c1ccccc1)c1ccc(NCc2ccco2)cc1	2.5%	x	x	u	x
N#C/C=C1\n2c(nc3ccccc32)OC12CCCCC2	0.4%	1e-09	i	12.4%	i
CCOc1ccc(NC(=O)c2oc3ccccc3c2NC(=O)C2CC2)cc1	1.7%	1e-09	i	7.2%	i

(cont.)
Molecule	AID923	A647 autofl	Resorufin autofl	TSHR ag	A488 autofl
Cn1cccc1C(=O)OCC(=O)Nc1ccc2c(c1)CCC2	1.1%	1e-09	i	-7.8%	i
CCOC(=O)C1CCN(C(=O)c2ccc(Cl)c(S(=O)(=O)N3CCOCC3)c2)CC1	-0.9%	3.6e-09	i	-0.8%	i
COc1ccc(-c2cc(C(F)(F)F)nc(SCC(=O)Nc3cc(C)on3)n2)cc1OC	4.7%	4.4e-09	i	6.1%	i
O=C(NCC1CCCO1)c1ccc(S(=O)(=O)N2CCCCC2)cc1 (stereo not drawn)	-0.7%	1.56e-08	i	-9.6%	i
CSc1ccccc1NC(=O)c1cccnc1	1.3%	3.83e-08	i	3.3%	i
CCOC(=O)Cc1nnc(NC(=O)COc2ccc(C)cc2)s1	2.0%	2.67e-08	i	8.1%	i
C[C@@H](C(=O)Nc1ccc2ccccc2c1)[C@@H]1C[C@@]1(C)[C@@H](N)c1ccccc1	-0.9%	x	x	u	x
Oc1cccc(C=NCc2ccccc2)c1O	1.7%	x	x	-3.6%	x
Cc1oc2ccc(OCc3ccc(F)cc3)cc2c1C(=O)O	-0.3%	4.08e-08	i	8.6%	i
CCC(=O)Nc1ccccc1Oc1ccccc1	-2.3%	1.01e-08	i	-0.7%	i
